# Screening data: PubChem, Center for Chemical Genomics, University of Michigan
# HIV TAR-Tat: HIV-1 TAR-Tat binding disruption; HIV-1 TAR RNA, Tat peptide displacement FRET; active compounds read high; z-score (test concentration not listed); 100,000 tested, 0.6% active; AID 1259389;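 note: score is relative to mean and SD of negative controls; some compounds called inactive have numbers as strong as hits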
# CDC25B-CDK2 inh: human CDC25B-CDK2/CyclinA binding inhibition | HTRF CDC25B-CDK2/CyclinA binding, anti-His/anti-Flag; active compounds read high | z-score (concentration not given with the values) | 94,000 tested, 0.72% active | AID 1259370;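 note: score is relative to mean and SD of negative controls; strong numbers were not always called active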
# The depositor's hits bear a star; . = not tested or not shown.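 Rule for the calls: active = z-score from 3 up in half or more of its runs; inactive = the rest.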
SMILES,HIV TAR-Tat,CDC25B-CDK2 inh
Cc1nc2cccnc2n1CCCNC(=O)NC1CCCCC1,1.05,.
O=C(NCCc1csc(-c2cccs2)n1)C1CCN(C(=O)Cc2cccs2)CC1,-0.02,.
O=C(Nc1ccc(Cl)c(-c2nc3ccccc3s2)c1)c1cncc(Br)c1,2.51,-5.38
NCC1CCC(C(=O)O)CC1 (centres undefined),1.37,.
COc1ccc(-c2cc(N)n(S(=O)(=O)c3cccc4nsnc34)n2)cc1,1.84,-1.36
Cc1cc(C(=O)Oc2ccccc2NC2=NS(=O)(=O)c3ccccc32)c2ccccc2n1,-0.27,-0.2
Cn1nc(C(=O)NCCCN2CCOCC2)c2c1-c1ccccc1OC2,0.48,-1.51
O=C(CSc1nc2cccnc2s1)c1cccc([N+](=O)[O-])c1,.,0.51
CC(=O)C1C(c2cccc(Oc3ccccc3)c2)NC(=O)NC1(O)C(F)(F)F (centres undefined),.,-1.42
O=C(Nc1nnc(-c2cccnc2)s1)C(=O)c1c[nH]c2ccccc12,0.26,-1.91
CCOc1ccc(-n2ccc(=O)c(C(=O)Nc3nnc(SCC)s3)n2)cc1,1.57,0.76
O=C(OCCN=C1NS(=O)(=O)c2ccccc21)c1cccnc1,0.96,1.27
O=c1cnnc(Nc2ccc3c(c2)OCO3)[nH]1,-1.99,-1.03
Cc1cc(C)cc(NC(=O)CCc2nc(CSc3nc4cc(Cl)ccc4o3)no2)c1,-0.79,.
CCOC(=O)N1CCC(NS(=O)(=O)c2ccc3c(c2)CCCC(=O)N3)CC1,-0.1,.
COc1ccccc1Nc1nc(N)nc(CSc2nccc(C)n2)n1,0.78,0.39
CCOC(=O)N1CCc2c(sc3c2C(=O)NC(c2ccc(O)c(OC)c2)N3)C1 (centres undefined),0.09,2.92
O=C(Nc1ccc(F)cc1F)C1CC2CCCN2C12C(=O)Nc1ccccc12 (centres undefined),-1.69,.
Cc1ccc(SC2=NS(=O)(=O)c3ccccc32)c(C)c1,0.57,-1.41
Cc1nc(C(C)(C)O)n(-c2ccccc2)n1,1.95,-0.36
Cc1ccc2[nH]cc(NC(=O)N(C)Cc3ccccc3)c(=O)c2c1,-1.5,-2.54
Cc1ccc(C)c2c(=O)cc(CSc3nnc(-c4ccccc4)n3C)[nH]c12,0.63,.
O=C(NCC1CCN(CCc2cccs2)CC1)C1CCN(c2ccc(-c3cccs3)nn2)CC1,1.37,.
CCCN(CCC)C(=O)C1CCCN(c2ncnc3c2nc2n3CCCCC2)C1 (centres undefined),0.07,.
Cc1nc2sc3ccccc3n2c(=O)c1S(=O)(=O)Nc1ccc(F)cc1,1.31,-0.62
Fc1ccc(N2CCN(Cc3csc4c3CCCC4)CC2)cc1,0.35,.
CCS(=O)(=O)c1nc(S(=O)(=O)c2ccc(C)cc2)c(NCC2CCCO2)s1 (centres undefined),0.21,0.55
CCN1CCN(Cc2c(C)[nH]c3ccc(C)cc3c2=O)CC1,-0.48,-1.09
Cc1cc(NC(=O)NN2CCOCC2)no1,.,-1.47
Cn1c2c(c(=O)[nH]c1=O)C(c1ccc(C(=O)O)cc1)C1=C(N2)c2ccccc2C1=O (centres undefined),0.48,-1.84
COCCCN1Cc2cccc(C(=O)O)c2C1=O,-0.04,-1.01
COc1ccc(NC(=O)C(C)Sc2nnc(Cc3c(C)nc4ccc(C)cn4c3=O)n2C)cc1 (centres undefined),0.13,2.95
CCc1nc(-c2csc(S(=O)(=O)Nc3ccc(C)c(F)c3)c2)no1,1.13,.
COCCCn1c(=O)c2sccc2n2c(CCCC(=O)N3CCC(C(N)=O)CC3)nnc12,-0.31,.
Cc1noc2ncnc(N3CCCC(C(=O)Nc4nccs4)C3)c12 (centres undefined),0.87,.
O=S(=O)(c1c(Cl)sc(Cl)c1Br)N1CCOCC1,.,-1.91
O=C(O)/C=C/c1c[nH]c2ccccc12,0.21,.
CN(c1ccc(F)cc1)S(=O)(=O)c1ccsc1C(=O)O,-0.58,-0.68
O=C(Nc1ccccc1C(F)(F)F)c1ccsc1,.,-2.1
Cc1cc(=O)[nH]c2c1c(-c1ccccc1)nn2C,1.83,.

# Arranged by SMILES length (high to low): some entries from above
SMILES,HIV TAR-Tat,CDC25B-CDK2 inh
Cn1c2c(c(=O)[nH]c1=O)C(c1ccc(C(=O)O)cc1)C1=C(N2)c2ccccc2C1=O (centres undefined),0.48,-1.84
Cc1ccc(C)c2c(=O)cc(CSc3nnc(-c4ccccc4)n3C)[nH]c12,0.63,.
Cc1ccc2[nH]cc(NC(=O)N(C)Cc3ccccc3)c(=O)c2c1,-1.5,-2.54
CN(c1ccc(F)cc1)S(=O)(=O)c1ccsc1C(=O)O,-0.58,-0.68
Cc1cc(=O)[nH]c2c1c(-c1ccccc1)nn2C,1.83,.

# Entries of single compounds, looked up by structure. Screens in order: HIV TAR-Tat, CDC25B-CDK2 inh
# COCCCN1Cc2cccc(C(=O)O)c2C1=O is entered as -0.04, -1.01
# O=C(O)/C=C/c1c[nH]c2ccccc12 is entered as 0.21, .

# The listing continues.
SMILES,HIV TAR-Tat,CDC25B-CDK2 inh
CSC1=C(C#N)C(c2ccc(Cl)cc2)CC(=O)N1 (centres undefined),-11.7,-0.86
CCOC(=O)c1c(C)oc2nc(C)nc(NCCN(C)C)c12,-0.03,.
O=C(Nc1nnc2n1CCS2)c1ccc(F)cc1,-0.39,.
O=c1c2nccnc2nc(SCc2cccc(F)c2)n1Cc1cccs1,-0.1,.
c1ccc(-c2cccs2)nc1,.,-1
O=C1CCCC2=C1C(c1cccc(F)c1Br)n1c(nc3ccccc31)N2 (centres undefined),.,-1.62
Cc1cc(C)cc(NC(=O)C2CC3CSCN3C23C(=O)N(C)c2ccccc23)c1 (centres undefined),-0.23,.
COc1ccc(NC(=O)NC(C)c2c(-n3cccc3)sc3c2CCCC3)cc1OC (centres undefined),0.45,11.2*
Cc1ccc2oc3c(c(=O)c2c1)C(c1cccc(Cl)c1)N(CCCN(C)C)C3=O (centres undefined),1.01,-0.64
O=C(Nc1cccc2cccnc12)c1cc2ccccc2o1,0.44,-0.66
CCCCOc1ccc(CSc2ncn[nH]2)cc1,0.62,-1.01
O=C(NCc1ccccc1)c1noc2c1CSc1ccccc1-2,0.76,-0.02
CCS(=O)(=O)N1CCC(C(=O)NCCCOC)CC1,1.27,.
COc1ccc(N2C(=O)CC(SCc3ccc(Cl)cc3)C2=O)cc1 (centres undefined),.,-1.35
COC(=O)c1cc(OC)c(OC)cc1NC(C)=O,.,-1.39
COc1ccc(NC(=O)c2sc3nc(N4CCCC4)c4c(c3c2N)CCCC4)c(OC)c1,0.28,0.1
Cc1c(C(=O)NC2CC2)oc2ccc(S(=O)(=O)N3CC(C)CC(C)C3)cc12 (centres undefined),.,-0.03
CCOc1ccc2c(=O)c(Oc3ccc(OC)cc3)c(C(F)(F)F)oc2c1,-0.76,0.06
CCCCN1C(=O)C2(/C(=C(/O)c3ccc(F)cc3)C(=O)C(=O)N2CCCOC)c2ccccc21 (centres undefined),0.55,-1.53
O=C(Nc1ccc(F)c(F)c1)c1c(O)c2cccc3c2n(c1=O)CCC3,0.9,.

# Three of these compounds in another layout:
Compound | HIV TAR-Tat | CDC25B-CDK2 inh
Cc1ccc2oc3c(c(=O)c2c1)C(c1cccc(Cl)c1)N(CCCN(C)C)C3=O (centres undefined) | 1.01 | -0.64
CCN1CCN(Cc2c(C)[nH]c3ccc(C)cc3c2=O)CC1 | -0.48 | -1.09
c1ccc(-c2cccs2)nc1 | . | -1

# Further records follow.
SMILES,HIV TAR-Tat,CDC25B-CDK2 inh
c1ccc(-c2nnc(-c3ccccc3OCc3ccccn3)o2)cc1,0.16,.
O=C(OCCN=C1NS(=O)(=O)c2ccccc21)c1ccco1,-0.21,-0.62
O=C(CSc1cn(CC(=O)N2CCOCC2)c2ccccc12)Nc1ccc2c(c1)OCO2,-0.09,.
O=C(/C=C/c1ccc(-c2ccc(Cl)cc2Cl)o1)c1cccs1,.,-6.16
CCOC(=O)Cn1c(C)cc(=O)n2ncc(C(=O)OCC)c12,-1.26,-1.45
O=C(O)c1cc(-c2ccccc2)nc2ccc(Cl)cc12,.,-2.95
COc1ccc(-c2n[nH]c(=O)c(Cc3ccccc3)n2)cc1,1.1,.
Cc1c(OCC(=O)c2ccc3ccccc3c2)ccc2c3c(c(=O)oc12)CCCC3,.,-3.91
CC(C(=O)Nc1ccc(Br)cc1)n1nc(-c2ccc3c(c2)OCCO3)ccc1=O (centres undefined),2.15,-0.93
CCC(C(=O)OC)n1cnc2c(oc3ccccc32)c1=O (centres undefined),1.81,.
Cc1csc(NC(=O)CSc2ccc(-c3sc(-c4ccccc4)nc3C)nn2)n1,1.33,.
COc1ccc(S(=O)(=O)NCc2cn3c(C)csc3n2)cc1,1.64,-0.44
Cc1noc(C)c1CCNc1ncnc2onc(-c3cc(F)cc(F)c3)c12,1.52,.
COc1ccc(-c2noc(Cc3ccccc3)n2)cc1,1.23,-0.27
O=C(C1CCN(c2nn3c(=O)c4c(nc3s2)CCCC4)CC1)N1CCN(c2ncccn2)CC1,2.54,.
CC(=O)N1c2ccc(S(=O)(=O)N3CCCC3)cc2CC1C(=O)NCCCN1CCCC1 (centres undefined),1.18,.
Cc1ccn2c(=O)c(C(=O)NCCOCCO)c(O)nc2c1,-0.63,-1.1
Cc1ccc(C2Nc3ccccc3S(=O)(=O)N2Cc2ccccc2)cc1 (centres undefined),.,-1.39
CC1(C)CC(=O)C2=C(C1)Nc1ccccc1N(CC(=O)NC1CCCCC1)C2c1ccco1 (centres undefined),-2.31,.
Cn1c(=O)c2c(nc(NCCO)n2Cc2cccc(Br)c2)n(C)c1=O,3.25,0.63
N#Cc1c(NC(=O)c2cccc(-n3cnnc3)n2)sc2c1CCCC2,1.45,.
CC(C)(C)c1ccc(=O)[nH]n1,.,-2.69
CCOc1ccc(S(=O)(=O)N2CCSC2c2cccc(Cl)c2)cc1 (centres undefined),1.34,-0.53
CCCCCCCCCCCCCCNC(=O)CSc1nncn1C,.,-1.34
Cc1nnc2c(NCCN3CCOCC3)nc3ccccc3n12,0.65,-1.77
C=CCN(c1ccccc1)S(=O)(=O)c1ccc2c(c1)n(C)c(=O)c(=O)n2C,-0.53,-1.7
Cc1nc2cccc(F)c2c(=O)[nH]1,.,-1.7
O=C1CCN(c2cc(Nc3cccc(F)c3)c3c4c(onc24)-c2ccccc2C3=O)CC1,17.2*,7.78*
O=C1OC(c2ccccc2)C(O)(c2ccccc2)C12CCCC2 (centres undefined),.,0.61
O=C(NCCCN1CCCc2ccccc21)C1CCN(c2ccc(-c3cccs3)nn2)CC1,-0.2,.
Cn1c(SCC(=O)Nc2cccc3nsnc23)nnc1-c1ccncc1,-0.99,-1.2
CCOC(=O)c1c(C)oc2nc(C)nc(Nc3ccc(OCC)cc3)c12,0.53,.
CCSc1ncc(C#N)c(N)n1,1.39,.
CCCNc1nc(NCCC)c2cnn(C)c2n1,1.05,.
CCSc1ncc2c(=O)n(CC(=O)NC3CCCCC3)cnc2n1,0.69,.
CC1Cc2ccccc2N1S(=O)(=O)c1ccc2c(c1)N(C)CCO2 (centres undefined),0.03,.
Cc1ccc(CC2CC(=O)N(CCc3ccc4c(c3)OCO4)C2=O)cc1 (centres undefined),0.24,.
Cc1ccc2c(c1)-c1c(c(C(=O)NC3CCCCC3)nn1C)CS2,-0.06,.
CCOC(=O)C1=C(C)Nc2nc3ccccc3n2C1c1ccccc1C (centres undefined),1,-1.4
CCOC(=O)c1c(C)oc2cc(Br)c(OCC)cc12,1.88,-1.22

# A few values from above.
# CDC25B-CDK2 inh with Cc1nc(C(C)(C)O)n(-c2ccccc2)n1 stands at -0.36
# CDC25B-CDK2 inh with Cc1nc2sc3ccccc3n2c(=O)c1S(=O)(=O)Nc1ccc(F)cc1 stands at -0.62
# HIV TAR-Tat with Cc1cc(C)cc(NC(=O)C2CC3CSCN3C23C(=O)N(C)c2ccccc23)c1 (centres undefined) stands at -0.23
# HIV TAR-Tat with O=C(NCC1CCN(CCc2cccs2)CC1)C1CCN(c2ccc(-c3cccs3)nn2)CC1 stands at 1.37

# New compounds follow:
SMILES,HIV TAR-Tat,CDC25B-CDK2 inh
Cc1ccc(-c2noc(-c3cnccn3)n2)s1,1.28,.
O=C(COCc1cc(-c2ccc(F)cc2)on1)NCC1CCCO1 (centres undefined),0.53,0.57
CCc1nc2nc(C)cc(Nc3ccc(OC)cc3)n2n1,0.86,-2.18
Cc1csc(NC(=O)CC(C)(C)CC2=NS(=O)(=O)c3ccccc3N2)n1,.,-0.08
O=C1CCC2=NS(=O)(=O)c3ccccc3N12,.,-1.97
O=C(CSc1nccn(-c2cccc(F)c2)c1=O)Nc1ccccc1,0.33,.
O=C(Cn1cnc(S(=O)(=O)N2CCCC2)c1)Nc1ccc(F)cc1Cl,-0.87,.
CCOC(=O)C(CC)Sc1nnc(CSc2ncccn2)n1-c1ccc(F)cc1 (centres undefined),-0.61,-0.5
O=C(Nc1ccccc1Cl)C1=Cc2sc3c(c2CS1)CCCC3,-2.83,.
Cc1noc(/C=C/c2ccco2)c1S(=O)(=O)N1CCCC(C(=O)NC2CCCCC2)C1 (centres undefined),0.87,.
CC1=C(C(=O)OCc2ccccc2)C(c2ccc(C)o2)C2=C(CC(C)(C)CC2=O)N1 (centres undefined),8,1.16
COc1cccc(NC(=O)C2=Cc3cc(Br)ccc3OC=C2)c1,2.24,1.97
O=C(O)c1ccccc1SC/C(=N\O)c1ccc([N+](=O)[O-])cc1,.,-2.52
CCOC(=O)CNc1nn2c(=O)c3cc4c(cc3nc2s1)OCO4,2.08,-0.15
COc1ccc(COC(=O)C2=C(C)NC3=C(C(=O)CCC3)C2c2cc(OC)ccc2OC)cc1 (centres undefined),0.33,-0.68
CC(C)OCCCN1C(=O)c2[nH]nc(-c3ccccc3O)c2C1c1cccc(O)c1 (centres undefined),2.31,-1.14
Cc1nn(C)c(C)c1CNC(=O)Nc1csc2ccccc12,.,-5.49
CCCCCOC(=O)c1c(C)oc2ccc(NS(=O)(=O)c3cccs3)cc12,-0.8,0.4
